# Screening data (PubChem)
# eIF4H inh – inhibitors of RNA binding by human eIF4H; Q15056; inhibition, % at 35 µM; 0.94% of 290,000 active; eIF4H fluorescence polarization binding assay;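 active = 50% or more with normal probe brightness, or confirmed in later tests; inconclusive = above 50% with abnormal brightness, or retests that disagree; inactive = below 50% or failed in later tests; about a fifth of its hits are not listed in these tables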;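 also: calls also rest on retests at 20 µM and on dose response follow-up; 0% = protein and probe with vehicle and 100% = probe without protein; strong numbers were not always called active; many hits fall short of the cut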
# CSC inhib – cancer stem cell inhibition | inhibition, % at 7.5 µM | 1.1% of 300,000 active | cancer stem cell-like cells viability, luminescence;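 active = mean at 75% or more and at least half the replicates too; inconclusive = mean and replicates disagree; tested in HMLE shEcad cells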;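 also: 0% = median of negative and 100% = median of positive control wells; the first replicate is given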
# MT1-MMP act inh – blocks activation of human MT1-MMP | HT1080 RFP-PRO-GFP cells, GFP/RFP ratio fluorescence, overnight; percent of plate control window, DMSO zero | 0.061% of 360,000 active | AID 651647 | P50281 | GFP/RFP ratio change, % at 20 µM;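 active = GFP/RFP ratio change of at least 30% with cell ATP level not reduced by more than half and red fluorescence within 50% of control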; also: strong numbers were not always called active
#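 Assay system – RFP-PRO-GFP reporter HT1080 cells · Compound dosing – single dose of 20 µM compound, 1% DMSO final · Incubation – overnight compound exposure at 37 °C · Measure – GFP/RFP fluorescence ratio · Benchmarks – DMSO wells and RFP-L50D-GFP cells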
# HIV Env fusion – blocks HIV Env-driven cell-cell fusion; inhibition, % at 12.3 µM; 1.1% of 360,000 active; HeLa-JRFL Env/CEM21 cell fusion, luciferase; AID 651610;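 active = mean replicate inhibition score of at least 50 and every replicate individually at or above 50; inconclusive = only one of the two criteria met; inactive = mean below 50 and not all replicates reaching 50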;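 also: 0% = plate neutral controls and 100% = maraviroc near 300 nM; one replicate is shown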
# Rce1 inh – blocks yeast Ras-converting enzyme. AID 2563. yeast membranes, quenched prenylated peptide cleavage fluorescence. calls only. 0.27% of 290,000 active. Q03530;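 active = fall in fluorescence gain of 50% or more versus controls, with final raw signal at or below 3038400; inconclusive = same 50% fall but final raw signal above 3038400; inactive = fall in fluorescence gain under 50%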;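 also: plate controls were neutral control wells for no effect and wells lacking membranes for full effect; tested at 10 µM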
# PABP polyA inh – PABP-poly(A) binding inhibition; P11940; PABP-poly(A) RNA binding, fluorescence polarization; inhibition, % at 35 µM; 1% of 290,000 active; AID 2014;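 active = 50% or more with normal probe brightness, or confirmed in later tests; inconclusive = above 50% with abnormal brightness, or retests that disagree; inactive = below 50% or failed in later tests; about a fifth of its hits are not listed in these tables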;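 also: calls also rest on retests at 20 µM and on dose response follow-up; controls were probe without protein and protein plus probe with vehicle; some compounds called inactive have numbers as strong as hits; many hits fall short of the cut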
# Target sequence (P11940 whole entry, looked up): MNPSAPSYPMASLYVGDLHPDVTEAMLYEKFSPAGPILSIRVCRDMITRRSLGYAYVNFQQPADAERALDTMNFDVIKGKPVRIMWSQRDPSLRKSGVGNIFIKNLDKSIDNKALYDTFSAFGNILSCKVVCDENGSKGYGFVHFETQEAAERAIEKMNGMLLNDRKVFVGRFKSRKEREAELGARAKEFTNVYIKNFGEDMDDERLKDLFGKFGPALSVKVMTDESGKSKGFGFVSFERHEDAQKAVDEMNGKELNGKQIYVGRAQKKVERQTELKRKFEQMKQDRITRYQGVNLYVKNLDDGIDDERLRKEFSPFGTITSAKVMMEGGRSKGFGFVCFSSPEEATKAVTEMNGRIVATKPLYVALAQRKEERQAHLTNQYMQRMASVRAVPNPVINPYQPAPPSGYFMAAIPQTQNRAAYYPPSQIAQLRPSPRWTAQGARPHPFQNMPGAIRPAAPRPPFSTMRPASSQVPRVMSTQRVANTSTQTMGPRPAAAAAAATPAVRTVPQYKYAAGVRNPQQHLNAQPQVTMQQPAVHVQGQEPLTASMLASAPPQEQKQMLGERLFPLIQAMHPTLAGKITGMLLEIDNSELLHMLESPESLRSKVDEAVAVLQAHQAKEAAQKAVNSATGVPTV
# Yeast UUG start – alters start codon recognition fidelity in yeast; AID 602363; 0.13% of 350,000 active; S. cerevisiae UUG-firefly luciferase reporter, luminescence/redox ratio; activity score, % at 18.7 µM;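 active = replicate mean at a twofold rise or more, about +100% in these data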;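 also: firefly luciferase made from a UUG start codon reports start codon fidelity; reporter light over untreated wells divided by growth signal over untreated wells; some hits fall short of that in this replicate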
# eIF4H inh retest – recorded beside eIF4H inh, whose call it bears; inhibition, %; compound at 20 µM; confirmation average;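 mean of two retest wells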
# PABP polyA inh retest – also measured in PABP polyA inh; calls as there; inhibition, %; compound at 20 µM; confirmation repeats;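 mean of two retest wells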
# MT1-MMP act inh RFP – second read-out of MT1-MMP act inh, no call of its own (marks repeat the call); RFP signal change, %; measured here: RFP expression control read;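 0 = vehicle wells; hits needed this value within 50% of zero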
# * marks the source's active call; other numbers are inactive results; i = inactive; ? = inconclusive; . = no result given. Only part of the results is shown; rates above refer to the full screens.
SMILES,eIF4H inh,CSC inhib,MT1-MMP act inh,MT1-MMP act inh RFP,HIV Env fusion,Rce1 inh,PABP polyA inh,Yeast UUG start,others
CCc1nnc(NC(=O)C2c3ccccc3Oc3ccccc32)s1,0.9,31.7,-6.2,-0.5,.,i,6.0,-19.9,
N/C(=N\OC(=O)CCCN1C(=O)c2ccccc2C1=O)c1ccc(Br)cc1,.,4.0,2.5,1.3,.,i,.,-16.6,
O=S(=O)(Nc1nc2ccccc2nc1N1CCc2ccccc2C1)c1ccc(Cl)cc1,-4.1,40.3,-8.0,-16.0,36.5,i,-1.8,-37.1,
COc1ccc2cc3cc(C(=O)NCCN4CCc5ccccc5C4)sc3nc2c1,-6.4,-11.0,3.9,-4.1,-8.6,i,4.7,.,
CCc1nc2ccc(C(=O)Nc3cc(-c4ccccc4)ccc3OC)cn2c1N(C)CCC(C)C,.,.,1.0,-10.6,27.1,.,.,-9.1,
COc1ccccc1N1CCN(S(=O)(=O)c2cn(C)c(=O)n(C)c2=O)CC1,10.8,-15.0,0.5,8.5,-14.5,i,10.3,-5.3,
Cn1cccc1/C=N/n1c(-c2ccccc2)n[nH]c1=S,-4.3,2.1,3.2,-2.0,.,i,-1.1,-17.6,
CCN(CC)S(=O)(=O)c1ccc2nc(SC)sc2c1,-6.8,10.0,5.6,-0.5,-45.6,i,-3.0,-13.2,
CN(C)S(=O)(=O)c1cccc(NC(=S)N/N=C/c2ccco2)c1,-0.1,2.0,1.0,-1.7,4.1,i,13.5,-30.8,
O=C(Cc1ccccc1)Nc1ccc(C(=O)Nc2ccccc2C(=O)O)cc1,-2.1,7.8,3.8,4.1,?,i,6.7,4.0,
CC(C)(c1ccc(O)cc1)c1ccc(O)c(C(=O)O)c1,.,.,-0.9,3.2,-4.5,.,.,-24.6,
CC(=O)Nc1ccc(S(=O)(=O)NCCc2ccc(F)cc2)cc1,-0.8,-11.0,1.0,2.3,.,i,-1.9,-12.3,
O=C(N/N=C\c1ccc(O)c([N+](=O)[O-])c1)c1ccccc1-n1cccc1,-6.1,-28.3,3.3,0.8,-38.9,i,-11.7,2.9,
O=C(O)c1cc(=S)nc[nH]1,.,.,-8.2,3.9,0.7,.,.,-10.6,
COCCCNC(=O)/C(C#N)=C/c1c(N2CCN(C)CC2)nc2ccccn2c1=O,1.4,-4.7,-3.7,0.6,8.1,i,8.2,-0.1,
CCOc1ccccc1OCCCC(=O)N(CC)CC(=O)Nc1ccc(NC(C)=O)cc1,.,-3.1,-1.1,0.8,-17.1,i,.,8.8,
CCOc1ccccc1OCC(=O)OCc1csc(CC(=O)Nc2ccccc2C)n1,.,-2.9,0.6,-0.3,-3.5,i,.,-13.7,
O=C(Nc1oc2ccccc2c(=O)c1-c1ccccc1)c1ccco1,.,.,-3.0,1.4,13.7,.,.,-14.2,
COc1ccccc1Nc1nc(N)nc(CN2CCc3ccccc3C2)n1,-0.4,-3.6,-4.2,-7.3,-57.8,i,-3.8,-3.2,
CCOC(=O)c1ccc(NC(=O)c2nc[nH]c2C(=O)N[C@@H](CC(C)C)C(=O)OCc2ccccc2)cc1,20.2,-5.6,3.0,5.4,2.0,i,18.9,-1.4,
Cc1cc[n+](CCc2ccccc2)cc1C,29.3,-14.9,0.2,2.3,6.9,i,7.1,-10.4,
O=C(CCCNS(=O)(=O)c1cccc2nsnc12)NCCc1ccccc1,-7.4,-16.7,-1.0,2.3,-86.5,i,-4.4,1.4,
COC(=O)c1oc2ccccc2c1N,-8.4,-5.8,4.9,1.0,14.9,i,-3.8,-18.7,
CCCCOc1ccccc1N,0.9,5.3,2.1,-1.1,-23.9,i,-4.9,.,
NCCNCCNCCN,10.7,4.2,0.0,4.1,13.2,i,3.4,-14.2,
CC(C)C(NC(=O)/C=C/c1ccc(F)cc1)C(C)C,-5.7,-9.7,6.0,2.1,.,i,-7.3,-10.8,
CCOC(=O)c1sc(N(Cc2ccccc2)C(=O)CSc2nnc(C3CC3)n2N)nc1C,-4.3,-9.0,4.5,-6.1,.,i,2.3,0.2,
C=CCn1c(=O)/c(=C/c2ccc(O)cc2)s/c1=C(/C#N)c1nnc2n1CCCCC2,?,0.5,-220.2,6.1,.,.,?,-2.2,
Cc1cc(C)nc(N/N=C/c2cc3c(cc2[N+](=O)[O-])OCO3)n1,54.8*,0.3,1.3,-0.3,6.0,i,11.2*,.,eIF4H inh retest=72.9*;PABP polyA inh retest=90.0*
Cc1cc(NC(=O)CSCC(=O)Nc2ccccc2Oc2ccccc2)no1,.,-9.4,2.0,-18.2,12.8,i,.,.,
S=c1[nH]nc(C2CCCCC2)n1/N=C/c1ccc(Br)cc1,-7.5,.,1.0,-3.0,8.0,i,-9.5,-6.5,
CN(Cc1ccccc1)S(=O)(=O)c1ccc(OCC(=O)NCc2ccncc2)cc1,-9.2,.,2.1,-1.9,5.5,i,-1.8,-3.3,
COc1ccc(C(=O)OC2CCN(c3ncc(C(F)(F)F)cc3Cl)CC2)cc1,-16.8,7.4,5.4,3.8,8.9,i,-8.7,1.3,
CC1CN(C(=O)Nc2ccc(F)cc2F)CC(C)O1 (stereo not drawn),9.1,-37.6,1.9,7.9,-3.3,i,1.0,-11.4,
C=CCN1C(=O)C(CC(=O)Nc2ccccc2)SC1=Nc1ccc(S(N)(=O)=O)cc1 (stereo not drawn),-9.6,-3.3,2.1,-1.0,-29.9,i,0.4,11.3,
CC1Cc2ccccc2N1C(=O)CSc1nc(-c2ccco2)cc(C(F)(F)F)n1 (stereo not drawn),-3.4,-1.8,1.5,6.4,.,i,-3.1,0.2,
Cc1ccc(S(=O)(=O)N(C)C)cc1NC(=O)CCCNC(=O)c1ccc(Cl)cc1,0.6,1.4,-2.8,-3.0,-11.8,i,1.0,6.0,
CCOCCCNC(=O)c1ccc(C2SCC(=O)N2Cc2ccccc2)cc1 (stereo not drawn),-11.4,-1.8,-1.9,-4.5,12.9,i,2.7,-4.1,
O=C1C2C3C=CC(CC3)C2C(=O)N1/N=C/c1c(O)ccc2ccccc12 (stereo not drawn),-2.1,1.1,0.3,3.5,8.2,i,15.7,.,
CCc1nnc(NC(=O)CN2CCN(Cc3ccc(F)cc3)CC2)s1,4.3,-7.2,0.1,1.5,-5.3,i,-2.9,5.4,

# For reference, some entries already given:
SMILES,eIF4H inh,CSC inhib,MT1-MMP act inh,MT1-MMP act inh RFP,HIV Env fusion,Rce1 inh,PABP polyA inh,Yeast UUG start,others
Cc1cc[n+](CCc2ccccc2)cc1C,29.3,-14.9,0.2,2.3,6.9,i,7.1,-10.4,
O=C(CCCNS(=O)(=O)c1cccc2nsnc12)NCCc1ccccc1,-7.4,-16.7,-1.0,2.3,-86.5,i,-4.4,1.4,
COC(=O)c1oc2ccccc2c1N,-8.4,-5.8,4.9,1.0,14.9,i,-3.8,-18.7,

# Additional entries
SMILES,eIF4H inh,CSC inhib,MT1-MMP act inh,MT1-MMP act inh RFP,HIV Env fusion,Rce1 inh,PABP polyA inh,Yeast UUG start,others
Cc1cc(-c2nnc(CCC(=O)NC(c3ccccc3)c3ccccc3)o2)no1,-5.6,-2.1,-0.1,-2.5,-15.6,i,2.2,.,
COc1ccc2cc3c(N)nn(C(=O)c4cccc([N+](=O)[O-])c4)c3nc2c1,10.5,-10.5,-16.1,-7.1,33.2,i,3.3,.,
C1=C(c2ccccc2)CCN(c2ncnc3nc[nH]c23)C1,-4.1,4.4,4.1,1.0,10.2,i,4.8,-25.0,
CCOc1ccc(OCCC(=O)OCC(=O)N(CC)c2c(N)n(Cc3ccccc3)c(=O)[nH]c2=O)cc1,.,.,2.8,-0.6,-8.6,.,.,-29.8,
CCN(C(=O)COC(=O)c1ccc(OCc2c(C)noc2C)cc1)c1ccccc1,-8.5,32.1,-6.3,-6.8,.,i,-1.3,-2.4,
FC(F)Oc1ccc(NC(=S)NCc2ccco2)cc1Cl,1.7,-24.3,2.0,5.3,15.0,i,-6.9,.,
CCOC(=O)C1=C(C)NC(C)=C(C(=O)OCC)C1C(=O)OCC(=O)N(C)C1CCS(=O)(=O)C1 (stereo not drawn),0.7,2.6,-1.6,1.8,-27.7,i,-0.4,.,
Cc1cccc(C(=O)NNC(=O)c2ccccc2[N+](=O)[O-])c1,-7.8,-21.0,-0.8,2.3,8.9,i,-0.4,-7.9,
CN1Cc2cc(C(=O)c3cc(Cl)cc(CSc4ncccn4)c3O)cnc2NC1=O,2.3,67.7,.,.,.,.,-0.7,.,
C/C(=N\OCC(=O)Nc1ccc2c(c1)OCCO2)c1ccc2c(c1)OCCO2,-4.9,7.4,8.1,-4.2,.,i,5.1,-15.3,
O=S(=O)(c1ccc(F)cc1)N1CCCNCC1,-8.8,-14.3,0.1,3.6,-8.8,i,-1.0,-0.5,
CCOC(=O)n1c(=O)n(Cc2cccc(F)c2)c2ccccc21,6.2,-8.1,2.6,3.0,7.0,i,11.8,.,
CCOC(=O)c1c(C)nc2c(c1-c1ccc(OC)c(OC)c1)C(=O)c1ccccc1-2,-2.0,6.4,-7.7,6.3,.,i,-20.3,-19.9,
CCOC(=O)C1(Cc2cccc(Cl)c2)CCCN(C(=O)c2c(CC)noc2C)C1 (stereo not drawn),-1.8,-3.3,-1.6,-1.4,4.9,i,9.7,-13.8,
Cc1csc2c(SCC(=O)NNS(=O)(=O)c3cccc(C(F)(F)F)c3)ncnc12,-6.6,-1.9,-0.9,3.5,0.3,i,-2.6,-5.9,
CCCn1c2ccccc2c2cnn(CC(=O)NC3CCCCC3C)c(=O)c21 (stereo not drawn),-0.4,2.4,0.2,0.5,-10.9,i,-1.6,-12.3,
CN(C(=O)CN1C(=O)S/C(=C\c2cccc(Cl)c2)C1=O)C1CCS(=O)(=O)C1 (stereo not drawn),5.0,6.2,-0.9,-2.0,-8.8,i,0.3,2.0,
O=[N+]([O-])c1ccc(CSc2nnc(Cc3ccccc3)n2-c2ccc(F)cc2)cc1,2.5,-7.6,-5.9,-8.6,-33.5,i,-7.9,.,
Cn1cnc([N+](=O)[O-])c1S(=O)(=O)Oc1ccc(Cl)cc1,.,.,-1.9,2.3,-9.2,.,.,-31.5,
CCCS(=O)(=O)N1CCN(S(=O)(=O)c2ccccc2)CC1,-3.9,-2.6,1.5,2.4,-3.2,i,-6.7,-5.1,
Cc1ccc(OCCn2c(=O)n(C)c3ccccc32)cc1,-1.2,-10.7,4.4,4.3,-14.1,.,-4.1,.,
CCC(CC)C(=O)N(C)c1c(C)nc2c(OCc3cccc(OC)c3)cccn12,.,.,-3.2,-0.1,27.6,.,.,-8.6,
O=C(CCC(=O)c1ccccc1)NCCOc1ccccc1,-11.9,-9.7,0.1,0.7,4.5,i,-14.6,-12.3,
O=C(CSc1cccs1)Nc1cccc2ccccc12,3.4,0.1,1.7,-4.4,.,i,-6.9,-12.8,
CCOC(=O)c1ccc(N/C=C/C(=O)c2ccco2)cc1,5.6,-17.0,1.5,2.7,.,i,4.3,-16.1,
O=C(Nc1cc(Cl)ccc1Cl)c1ccc(-c2ccccc2)cc1,-2.9,7.3,-0.6,-0.1,-5.4,i,-9.3,.,
Clc1ccccc1-c1nnc(-c2cccnc2)o1,-2.0,0.2,0.2,-1.6,-20.7,i,-0.9,-10.1,
